Sfp PPTase inh: Sfp phosphopantetheinyl transferase inhibition; Q9F4F7; Biochemical Sfp PPTase activity, qHTS; Potency, µM, inactives show max response, negative = inhibition, usual class: inhibitors; 310,000 tested, 3.5% active; AID 1490; active means well fitted inhibition curve with a large enough effect; inconclusive means small, poorly fitted or top-dose-only effect, or another doubt; inactive means no such curve, though single readings can be large or run the other way;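 further: the enzyme is Sfp with the accession as filed and its product quenches rhodamine fluorescence; potency means the concentration at half of the fitted maximal effect; 0% = enzyme reaction without inhibitor and -100% = no enzyme wells; top concentration of the series not given in the record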
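With Hepes-Na pH 7.6 buffer containing 10 mM MgCl2, Sfp (15 nM) modified BHQ-2-YbbR (12.5 uM) using rhodamine-CoA (5 uM). Two reads 30 minutes apart at 525/598 nm yielded each well's rate.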
TRPV1 potentiator: human TRPV1 potentiation. 320,000 tested, 0.02% active. AID 540277. potentiation, % at 8.33 µM. Q8NER1. TRPV1-expressing cells, Fluo-8 calcium influx, capsaicin EC20 potentiation; host cell line not named in the record; control for the full effect not named in the record; active means potentiation above 80%; inconclusive means 30% to 80%; inactive means below 30%; further: 0% is about no effect
Target sequence (Q8NER1 whole entry, looked up): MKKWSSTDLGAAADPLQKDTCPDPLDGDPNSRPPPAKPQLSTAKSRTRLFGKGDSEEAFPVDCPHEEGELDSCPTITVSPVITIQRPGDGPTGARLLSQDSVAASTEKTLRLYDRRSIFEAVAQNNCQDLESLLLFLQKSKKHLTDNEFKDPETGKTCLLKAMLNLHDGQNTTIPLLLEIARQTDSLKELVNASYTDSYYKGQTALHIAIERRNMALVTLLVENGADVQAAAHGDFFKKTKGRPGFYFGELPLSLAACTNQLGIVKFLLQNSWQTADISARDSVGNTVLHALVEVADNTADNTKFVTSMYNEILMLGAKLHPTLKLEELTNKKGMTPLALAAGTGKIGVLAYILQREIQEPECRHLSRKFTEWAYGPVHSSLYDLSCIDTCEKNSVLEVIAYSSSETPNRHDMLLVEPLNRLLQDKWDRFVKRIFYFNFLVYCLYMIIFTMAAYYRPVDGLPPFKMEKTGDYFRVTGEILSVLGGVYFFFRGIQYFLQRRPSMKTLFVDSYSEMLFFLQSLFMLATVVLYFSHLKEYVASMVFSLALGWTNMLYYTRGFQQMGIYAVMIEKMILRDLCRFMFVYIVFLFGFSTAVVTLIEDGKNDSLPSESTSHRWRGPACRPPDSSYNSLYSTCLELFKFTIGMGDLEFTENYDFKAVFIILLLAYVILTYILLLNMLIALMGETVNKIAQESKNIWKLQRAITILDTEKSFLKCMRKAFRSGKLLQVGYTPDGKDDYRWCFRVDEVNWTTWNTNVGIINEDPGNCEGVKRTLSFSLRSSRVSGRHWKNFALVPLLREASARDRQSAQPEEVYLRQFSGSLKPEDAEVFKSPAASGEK
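Cells expressing TRPV1 were dye-loaded with Fluo-8 and read kinetically: 10 s baseline, 3 min after compound (agonist portion), then 2 min after EC20 capsaicin (allosteric enhancer portion). Calcium-bound dye fluorescence at 480/520 nm.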
gsp ag: activates gsp, the McCune-Albright syndrome mutation | gsp mutant cells, cAMP HTRF, 30 min; control for the full effect not named in the record | Potency, µM (top dose mostly 76.9 µM), inactives show top-dose activation (cAMP increase), most hits filed as activators | 340,000 tested, 0.13% active; active = well fitted activation curve with a large enough effect; inconclusive = small, poorly fitted or top-dose-only effect, or another doubt; inactive = no such curve, though single readings can be large or run the other way; cell line not stated here;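 further: phosphodiesterase inhibitor Ro 20-1724 added with compounds to block cAMP breakdown; potency means the concentration at half of the fitted maximal effect; nearly all actives have a fitted effect of over 60% in size; about a fifth of the inactives were tested at one dose only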
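Cells in DMEM/10% FBS with G418 were pretreated with compounds in DMSO plus […] (300 uM stock) for 30 min at 37C. cAMP was measured by HTRF (cAMP-d2 plus anti-cAMP antibody-K) after 30 min at room temperature.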
gsp antagonist: antagonizes gsp, the McCune-Albright syndrome mutation; gsp-mutant cells, cAMP HTRF, 30 min; control for the full effect not named in the record; Potency, µM (titrated, usually from 76.9 µM), without a hit: top-dose activity change, negative = inhibition, actives largely listed as inhibitors; 340,000 tested, 0.4% active; AID 624288; active = falling curve of any shape with a large fitted effect; inconclusive = falling curve, mostly with a smaller effect; inactive = flat or rising curve; cell line not stated here;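 further: intracellular cAMP measured with PDE inhibitor Ro 20-1724 present during compound exposure; potency means the concentration at half of the fitted maximal effect; on the % scale 0 is the no-effect control and ±100 the full control effect; nearly all actives have a fitted effect of over 65% in size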
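Cells, 2000/well, grown 16–24 h in DMEM 10% FBS with 0.5 mg/ml G418, then compounds plus […] (300 uM addition stock), 30 min at 37C. cAMP read by HTRF (cAMP-d2 and anti-cAMP antibody-K in lysis buffer) after 30 min RT.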
Menin-MLL FL inh: inhibitors of human menin-MLL interaction, wild-type MLL peptide. Fluorescence polarization, fluorescein-MLL peptide displacement from menin. FP activity change, % at 61.4 µM. 290,000 tested, under 10 active. AID 1766; inconclusive = falling polarisation curve, or a change in total fluorescence; inactive = total fluorescence flat and polarisation flat or rising; no compound was filed as active; the % refers to the polarisation; negative = inhibition;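 further: % of control where 0% means no effect; inhibitors lower the polarisation; unlabelled MLL peptide was the positive control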
ClpP mod: qHTS Assay for Activators of ClpP | ATP-dependent Clp protease proteolytic subunit (Bacillus subtilis (strain 168)), P80244 | purified B. subtilis ClpP, FRET peptide cleavage, 20 min | Potency, µM (series often up to 57.5 µM), for the others: top-dose activity change, negative = active | 340,000 tested, 1.9% active | AID 651965, 2013; active = well fitted falling curve with a large enough effect; inconclusive = small, poorly fitted or top-dose-only effect; inactive = no such curve, though single readings can be large or run the other way; further: potency means the concentration at half of the fitted maximal effect; the source files actives as falling curves though it sought activators and does not explain the sign; nearly all actives have a fitted effect of over 65% in size; many hits overshoot -100%
Target sequence (P80244 whole entry, looked up): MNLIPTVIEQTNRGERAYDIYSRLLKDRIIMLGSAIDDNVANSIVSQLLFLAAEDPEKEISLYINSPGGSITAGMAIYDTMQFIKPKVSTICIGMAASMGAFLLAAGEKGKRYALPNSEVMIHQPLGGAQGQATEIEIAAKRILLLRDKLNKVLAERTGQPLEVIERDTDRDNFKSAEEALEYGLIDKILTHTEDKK
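Buffer: 100 mM Tris/HCl pH8, 100 mM KCl, 0.05% low protease BSA, 2.5% glycerol, 0.01% Tween-20. ClpP 10 microg/mL final; 20 min RT; delta FRET normalized to ADEP and DMSO controls.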
TRPML1 inh: human mucolipin-1 channel inhibition; Q9GZU1; TRPML1-inducible cells, Ca2+ dye fluorescence, FDSS; hits give low values; inhibition of EC80 agonist-evoked calcium signal; 390,000 tested, 0.02% active; activity change, negative = inhibition, % (test concentration not listed); AID 624415; in the data active means activity change below about -50%; inconclusive means about -30% to -50%; inactive means above about -30%;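 further: stimulus is agonist 54-4 at its EC80 concentration; on the % scale 0 is the no-effect control and ±100 the full control effect; compound concentration not given in the record; the text of the record puts the active cut at -80%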
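Tet-induced TRPML1-DL cells loaded with Ca8 no-wash calcium dye were read kinetically on FDSS. Compound addition was followed by EC80 agonist 54-4 (4 uM final); inhibition was read over 110 s.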
Numbers without * were called inactive; ? = inconclusive; nt = no result given; [ ] = dose if it differs, or a comment.

SMILES | Sfp PPTase inh | TRPV1 potentiator | gsp ag | gsp antagonist | Menin-MLL FL inh | ClpP mod | TRPML1 inh
O=[N+]([O-])c1cc([N+](=O)[O-])c(Oc2ccc(F)cc2)cc1NN1CCCCC1 | 8% | 3 | -36%[inhibitor] | -10% | -0.1 | 3.5% | 8
O=C(NN1C(=O)C2C(c3ccccc3)C=CC(c3ccccc3)C2C1=O)c1ccccc1 (stereo not given) | 19% | -19 | 2% | -27% | 1.7 | -2.0% | 11
CCOCCCNC(=S)Nc1ccc2nc(N3CCOCC3)cc(C)c2c1 | -22% | 14 | 9% | -1% | -1.0 | 3.3% | 17
CCOc1ccc(/C=C/C(=O)c2c(O)cc(C)oc2=O)cc1 | 16% | -33 | -31% | ? | 0.4 | nt | 50
O=C(CC1C[C@H](C(=O)N2CCCCC2)[C@@]2(CCc3ccccc3)c3[nH]c4ccccc4c3CCN2C1=O)NCCc1ccccn1 (stereo not given in full) | nt | nt | nt | 4% | nt | 0.7% | -12
CCn1c(SCC(=O)NNC(=O)c2ccc(OC)cc2)nnc1C(C)C | 7% | -5 | 11%[15.4 µM] | -7% | -0.2 | nt | -11
COc1ccc(CCNC(=O)C2CCN(c3ccc(N4CCOCC4)nn3)CC2)c(OC)c1 | 19% | -7 | 17% | -8% | -1.0 | 3.7% | 4
CCc1cc(=O)oc2cc(C)cc(OCC(=O)NCC3CCC(C(=O)O)CC3)c12 (stereo not given) | 16% | 8 | nt | 6% | 1.0 | 4.5% | nt
CCOc1cc(S(=O)(=O)Nc2ccccn2)ccc1F | 2% | 6 | -28% | 4% | 0.2 | -29% | 5
CNc1nc(Cl)c(SC)c(N2CCOCC2)n1 | 4% | 20 | ? | -5% | 0.0 | nt | -26
CCN1/C(=C2\OC(=S)N(C)C2=O)C=Cc2ccccc21 | -13% | 8 | ? | -3% | ? | -2.4% | -11
Cc1ccc(-c2ccc(CCC(=O)O)n2-c2ccc(C(=O)O)cc2)cc1 | 56µM* | -1 | -28% | -5% | 17 | -6.7% | 8
OC1CCN(c2c3c(nc4cc(-c5ccc(F)cc5)nn24)CCC3)CC1 | 10% | -17 | 0% | -6% | -0.8 | -13% | -2
O=c1nc(NC2CCCC2)ccn1Cc1cccc(Br)c1 | 0% | -2 | 24% | -4% | -0.2 | -22% | -1
CCOC(=O)[C@H]1[C@H]2COc3ccc(C)cc3[C@@H]2N2C(=O)CN(Cc3ccco3)C(=O)[C@@]12C | nt | -18 | nt | 8% | nt | -2.8% | -11
O=C(/C=C/c1ccco1)NCC(=O)N/N=C/c1ccc([N+](=O)[O-])cc1 | ? | 3 | 9% | -12% | -7.9 | 0.6% | -10
Cc1cc(C)nc(Nc2cccc(C(F)(F)F)c2)n1 | 6% | 3 | 0% | 4% | 5.4 | 1.5% | nt
Cc1ccc(/C=C(\NC(=O)c2ccccc2)C(=O)NC2CCN(Cc3ccccc3)CC2)o1 | 20% | -5 | -21% | 5% | nt | -1.3% | -7
Cc1ccc(/C=C2\SC(=S)N(CCC(=O)N3CCCCC3)C2=O)cc1 | 7% | 22 | 0%[15.4 µM] | 6% | nt | nt | -4
Nc1ccc(Br)c[n+]1Cc1cccc2cccnc12 | 4% | -5 | 6% | 16% | 4.8 | nt | 4
Cc1nc2ccccc2nc1OCc1cccc(Cl)c1 | 9% | ? | 4% | 8% | 2.4 | ? | -9
CC(=O)Nc1ccc(N(C(=O)c2ccco2)C(C(=O)NC2CCCC2)c2cccs2)cc1 (stereo not given) | 8% | -4 | 0%[15.4 µM] | -7% | 0.3 | -2.4% | 10
COc1ccc(C(=O)NCC(=O)NCC(=O)OCC(=O)c2cccs2)cc1 | 10% | 14 | 16%[15.4 µM] | -2% | 0.3 | -2.6% | -4
O=C(c1ccc(Cl)c(Cl)c1)N1CCCC1 | 9% | -4 | -4% | 7% | -2.2 | 0.4% | 8
O=C(O)c1ccc(-c2nc(-c3ccccc3)cs2)cc1 | 0% | 0 | 16% | -27% | -5.2 | nt | 27
COc1nc(N(C)S(=O)(=O)c2ccc(C)cc2)nc(C)c1Br | -7% | -14 | -28% | -5% | -8.2 | -1.7% | nt
Nn1c(-c2ccccc2)nc2cc(Cl)ccc2c1=O | 12% | 13 | -12% | -4% | -0.5 | nt | 31
CCc1cccc(NC(=O)CNC(=O)N2CC(=O)Nc3ccccc32)c1 | 24% | 8 | 24% | 0% | 5.4 | -1.9% | -3
O=C(c1ccccc1)c1ccc(OC(=O)C2CCCCC2)cc1 | -3% | -49 | -31%[inhibitor] | 1% | 0.1 | 2.8% | 8
COCCCNC(=O)CN1C(=O)CSc2ncccc21 | 17% | 1 | ? | 1% | 1.3 | -2.7% | 7

No new results follow: 2 of the compounds above.
SMILES | Sfp PPTase inh | TRPV1 potentiator | gsp ag | gsp antagonist | Menin-MLL FL inh | ClpP mod | TRPML1 inh
O=C(c1ccc(Cl)c(Cl)c1)N1CCCC1 | 9% | -4 | -4% | 7% | -2.2 | 0.4% | 8
O=C(O)c1ccc(-c2nc(-c3ccccc3)cs2)cc1 | 0% | 0 | 16% | -27% | -5.2 | nt | 27

Additional records follow:
SMILES | Sfp PPTase inh | TRPV1 potentiator | gsp ag | gsp antagonist | Menin-MLL FL inh | ClpP mod | TRPML1 inh
CC(C)CN1CCC(=O)N(C(CSc2ccc(Br)cc2)Cc2ccccc2)CC1 (stereo not given) | -15% | nt | nt | nt | 0.6 | nt | 53
CCOC(=O)C1CCCN(C(=O)COC(=O)c2cccs2)C1 (stereo not given) | nt | nt | 2%[15.4 µM] | 6% | nt | 1.0% | 2
COc1c2ccccc2c(OC)c2ccccc12 | 14% | 7 | 1% | 9% | 5.3 | nt | 3
COc1ccc2c(c1)CC=C1C2CCC2(C)C(=O)C(=NO)CC12 (stereo not given) | nt | nt | 16%[15.4 µM] | -12% | nt | -1.2% | 55
C=CCCC(=O)N1C[C@H]2CON(C)[C@H]2C[C@H]1c1cccc(Oc2ccccc2)c1 | nt | nt | -23% | nt | nt | -1.0% | 4
O=C(O)C(Cc1ccccc1)NC(=O)C(Cc1ccccc1)NC(=O)C12CC3CC(CC(C3)C1)C2 (stereo not given) | nt | nt | 10%[15.4 µM] | 4% | nt | nt | -12
O=C(COC(=O)/C=C/c1ccccc1)NC1CC1 | nt | -16 | -3% | 5% | nt | -1.0% | -4
CC1CCC2(CC1)NC(=O)N(NC(=O)c1cccc(N(C)C)c1)C2=O (stereo not given) | nt | 22 | 14% | 5% | nt | 4.9% | 1
CC(C)COC(=O)Nc1ccccc1C(=O)N1CCOCC1 | 8% | 0 | 16% | -7% | 2.4 | -0.8% | -7
COc1cc(NCCCn2cnc(C(=O)Nc3ccc(C)c(C)c3)n2)cc(OC)c1OC | nt | nt | nt | -13% | nt | 2.0% | -10
O=S(=O)(Cc1c(F)cccc1Cl)c1ncn[nH]1 | 0% | -3 | -14% | 4% | -2.3 | nt | -21
C[C@H](NC(=O)C1CCC(CNC(=O)[C@@H]2CCCN2C(=O)OC(C)(C)C)CC1)C(=O)O (stereo not given in full) | 12% | 12 | -10% | 14% | 6.0 | 0.6% | -8
C/C(=C\c1cccs1)C(=O)c1c(C)cc(C)[nH]c1=O | 19% | 8 | -3% | 6% | 0.1 | -1.0% | nt
CCCCn1nnc(NC(=O)COc2cc(C)ccc2C(C)C)n1 | 6% | 10 | ? | 0% | 1.9 | -0.2% | -12
Oc1ccc(F)c2cccnc12 | 5% | 2 | -22%[15.4 µM] | 1% | 4.0 | nt | -10
Cc1[nH]c2ccccc2c1/C=N\NC(=O)Cn1nnc(-c2ccccc2)n1 | -4% | 14 | -14% | 4% | 6.9 | -6.0% | -14
Cc1onc(-c2ccccc2Cl)c1C(=O)NC(C)c1ccccc1 (stereo not given) | 6% | -14 | -2% | -2% | 0.7 | -0.2% | -11
Cc1ccc(C(=O)NNC2=Nc3cc([N+](=O)[O-])ccc3OC2)cc1 | 10% | -10 | -6%[15.4 µM] | 4% | 2.6 | nt | 11
Cc1ccccc1-c1nc(CS(=O)(=O)CC(=O)NC2CC2)c(C)o1 | 19% | -3 | 4% | 1% | nt | -6.2% | -9
COc1ccc(CCN2CC(C(=O)NCCc3ccccc3C)CCC2=O)cc1 (stereo not given) | 13% | 10 | 12% | -3% | nt | 2.7% | 0
O=C(CN1CCN(Cc2ccc(F)cc2)CC1)Nc1nc2ccccc2s1 | 29% | 2 | -18% | 4% | 1.2 | 0.5% | -10
COc1ccccc1OCC(=O)Nc1ccc(S(=O)(=O)NC(C)=O)cc1 | -14% | -6 | 24% | 4% | -3.7 | 0.7% | 4
OCC1(Cc2ccc(Cl)cc2)CCN(CCCc2ccccc2)CC1 | 11% | -2 | -17% | 6% | -4.7 | nt | 4
CCOC(=O)C1CCCN(C(=O)c2ccc(CS(=O)(=O)Cc3ccccc3C)o2)C1 (stereo not given) | 14% | 7 | -34% | -16% | 2.2 | 3.1% | 0
Cc1ccc(S(=O)(=O)Nc2cc(Cl)c(O)c3ncccc23)cc1 | -6% | -2 | -10%[15.4 µM] | -11% | -1.6 | 0.9% | -9
CCOC(=O)NC1(C(F)(F)F)C(=O)NC(C)=C1C(=O)OC (stereo not given) | 10% | -12 | 7% | 8% | -5.9 | -0.6% | 0
FC(F)(F)c1cnc(N2CCSCC2)c(Cl)c1 | 16% | -9 | -6% | 12% | 3.7 | nt | 22
COc1cc(C(=O)Nc2ccc(S(=O)(=O)Nc3ncccn3)cc2)c([N+](=O)[O-])cc1OC | 17% | ? | ? | 5% | -8.7 | nt | 14
CCOC(=O)c1c(C)[nH]c(C)c1C(=O)COC(=O)/C=C/c1cccc(F)c1 | 7% | -13 | 1% | -1% | -4.0 | -0.6% | -8
Cc1cc(C)cc(C(=O)NC(CC(N)=O)c2ccc(NC3CCCCCC3)c([N+](=O)[O-])c2)c1 (stereo not given) | 12% | 3 | nt | 9% | -4.8 | -5.5% | 16
O=C(Cn1ncc2c3ccccc3n(Cc3ccc(F)cc3)c2c1=O)N1CCN(c2ncccn2)CC1 | 6% | 3 | -2% | -3% | 3.5 | ? | -1

Screens as filed in PubChem.
